Autofluor counter – flagged as autofluorescent in microsphere protease counterscreen | compound autofluorescence counterscreen, microsphere flow cytometry; active compounds read high | 360,000 tested, 3.1% active | fluorescence intensity (no concentration beside the values) | AID 624483;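 active = at least 3 SD above the mean of all compounds, about 16000 in these data; inconclusive = too few beads counted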;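 note: 100 nL of 1 mM stock went into each well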
RN4220 kill – S. aureus RN4220 growth inhibition | inhibition, % (test concentration not listed) | 330,000 tested, 0.33% active | OD600, 16 h | AID 1259311;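 active = z-score of -3 or lower and OD600 up to 0.18 on both plates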;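 note: plate controls were untreated cells for no effect and reference antibiotic for full effect; stock transfer was 100 nL into about 80 µL; one replicate is shown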
BJeLR viability – BJeLR cell viability loss | BJeLR (HRASV12) viability, CellTiter-Glo ATP luminescence, 48 h; reference of the scale not given here | inhibition, % (no concentration beside the values) | 300,000 tested, 0.17% active;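 active = replicate mean above 50%; inconclusive = above 50% but judged a plate artefact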;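 note: 50 nL library stock added to about 25 µL; numbers are from one replicate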
PrP UTR inh – inhibition of PrP 5' UTR reporter expression | AID 488862 | inhibition, % (no concentration beside the values) | cell-based PrP 5' UTR mRNA reporter, plate reader | 340,000 tested, 0.35% active;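 active = every replicate at 50% or more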;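 note: 0 = median of the neutral control wells; tested in H4 reporter cells; numbers are from one replicate; inactives centre near -14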
ugtP null kill – compounds lethal to S. aureus RN4220 ugtP deletion mutant | OD600 growth, 16 h; some inactives read as strong as hits | growth inhibition, % (test concentration not listed) | 330,000 tested, 0.54% active;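 active = z-score under -3 and OD600 up to 0.15 on both plates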;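 note: plate controls were untreated wells for no effect and antibiotic for full effect; wells of about 80 µL received 100 nL stock; the first replicate is given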
Mtb hypoxia rep – Mtb hypoxia fluorescent reporter inhibition; M. tuberculosis hypoxia-regulated fluorescent reporter, fluorescence; fluorescence inhibition, % (test concentration not listed); 300,000 tested, 0.1% active;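 active = 35 to 45% if threefold the growth effect, above 45% if 1.5-fold the growth effect; inactive = the rest, general growth blockers included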;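 note: wells of about 50 µL received 100 nL stock; 0% = vehicle wells and 100% = reference inhibitor wells; whole bacteria with a GFP reporter of the hypoxia response; strong numbers were not always called active; many hits fall short of the cut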
Mtb hypoxia rep growth – recorded beside Mtb hypoxia rep, whose call it bears; growth inhibition, %; measured here: M. tuberculosis growth (absorbance);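 0% = vehicle and 100% = reference antibiotic; read after six days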
An asterisk follows results filed as active; ? = inconclusive; . = not tested or not shown.

SMILES	Autofluor counter	RN4220 kill	BJeLR viability	PrP UTR inh	ugtP null kill	Mtb hypoxia rep	Mtb hypoxia rep growth
CN(C)c1cc(-c2ccccc2)nc(N)n1	4833	5.0	-3	-18	4	0	5
O=C1CN(C(=O)C2CCC(=O)N(CCc3ccc(Cl)cc3)C2)CCN1 (centres undefined)	5966	0.9	-2	-48	6	-2	7
Cc1ccc(CNC(=O)[C@H](C)NC(=O)C2CCN(C(=O)[C@@H]3CCCN3C(=O)OC(C)(C)C)CC2)cc1	5722	4.4	4	0	-9	.	.
Cc1cc(N2CCN(C)CC2)nc2ccccc12	3991	1.6	-1	-17	2	-15	6
COc1ccc(C2/C(=C(\O)c3cccc(OC)c3)C(=O)C(=O)N2c2ccccn2)cc1 (centres undefined)	23419*	-0.8	5	-15	-7	-3	10
Cc1ccn2c(-c3n[nH]c(=S)n3Cc3ccccc3)c(C)nc2c1	6635	.	-7	0	.	.	.
COc1cc(C(=O)OCC(=O)Nc2cc(C)on2)c([N+](=O)[O-])cc1OC	3917	-1.0	11	-17	2	0	4
COc1cccc(-c2cc(C(=O)NCc3cccs3)no2)c1	4085	3.5	-2	-50	0	9	3
Cc1cc(Br)c(S(=O)(=O)n2nnc3ccccc32)cc1C	8898	1.4	1	7	-3	-11	-1
CSc1ncccc1C(=O)Nc1ccc2c(c1)OCO2	3464	-0.4	.	-11	-4	0	-1
CN1CCN(c2ccc(S(=O)(=O)N3CCOCC3)cc2NC(=O)CC(C)(C)C)CC1	4287	-1.3	.	.	-4	-1	0
COc1ccc(N2C(=O)N3C4c5ccccc5OCC4C(c4ccccc4)[C@@]3(C)C2=O)cc1 (some centres undefined)	.	3.6	.	.	-13	9	0
Cc1nc2ccc3nc(NC(=O)c4ccc(S(=O)(=O)N5CCOCC5)cc4)sc3c2s1	15529	8.6	.	-3	-5	9	5
O=C(CCC1CCCN(C(=O)C2(c3ccccc3)CC2)C1)N1CCN(c2ccccn2)CC1 (centres undefined)	3147	0.8	4	3	-2	0	-1
COc1cc(C)c(Br)cc1S(=O)(=O)N1CCCC1	2479	4.1	9	-25	4	.	.
O=C(c1cccc(F)c1)N1CCN(C(=O)c2cc(-c3ccc(Cl)cc3Cl)on2)CC1	9830	4.8	-7	13	2	6	6
COc1ccc(S(=O)(=O)N2CCC(NC(=O)Nc3ccc(C)cc3)CC2)cc1	20464*	2.5	3	-26	5	4	-3
Cc1cc(Cl)c2oc(C(=O)N(C)Cc3ccon3)c(C)c2c1	5777	6.7	5	-95	7	7	2
CN(C(=O)CSc1ncccc1C(=O)O)c1ccccc1	10833	1.5	2	-15	1	1	-1
Cc1ccc([N+](=O)[O-])c(OCC(O)CNC(C)(C)C)c1 (centres undefined)	5859	4.3	1	.	8	-1	-2
O=C1c2ccccc2C(=O)N1CCc1nc(-c2ccc(Cl)cc2)no1	21023*	4.0	-5	-14	-3	3	10
COc1ccccc1C(=O)N/N=C(\C)CC(=O)Nc1ccccc1NC(C)=O	3855	.	-6	-28	.	.	.
COC(=O)c1cc(C(=O)OC)cc(S(=O)(=O)Nc2ccc(Cl)c(N)c2)c1	2902	17	4	-2	-10	15	10
Cn1c(=O)c2c(nc(SCCN3CCOCC3)n2C)n(C)c1=O	4174	3.3	-1	-56	-1	5	12
Cc1cc(S(=O)(=O)N2CCN(c3ccc(F)cc3)CC2)ccc1-n1cnnn1	5243	-1.9	5	-17	-6	0	4
O=C(OCC(=O)N1CCc2ccccc21)c1ccncc1	5873	-1.6	.	-3	-2	-3	-2
C[C@@]12C(=O)N(CC3CC3)CC(=O)N1C(C=Cc1ccccc1)C1C(=O)N(c3ccccc3)C(=O)C12 (some centres undefined)	.	4.5	.	.	-7	4	6
O=C(Cn1ncc2c(=O)oc3ccccc3c21)NCC1COc2ccccc2O1 (centres undefined)	4482	1.0	1	-12	2	.	.
COc1ccc(CSc2nc(C)cc(=O)[nH]2)cc1	4775	-3.3	.	-20	-1	.	.
COc1ccc(NC(=O)C(c2ccc(OC)cc2)N(C)C(=O)CC2NC(=O)NC2=O)cc1 (centres undefined)	2431	3.4	5	-6	13	7	4
Nc1c(-c2ccccc2)cnn1C1CCS(=O)(=O)C1 (centres undefined)	2742	-9.4	-1	0	-4	0	8
CC(C)CC1CN=C(Nc2ccccc2)N1CCC1CCCCC1 (centres undefined)	.	5.3	.	.	-15	-3	5
CCCCCc1nnc(NC(=O)C2CCCO2)s1 (centres undefined)	20636*	1.2	-9	-41	1	13	8
COc1ccccc1OCCC(=O)NCc1ccc2c(c1)OCO2	4916	2.3	13	-13	-3	2	6
CC1CCCCN1CC(=O)c1c[nH]c2ccccc12 (centres undefined)	4282	2.1	-3	-1	3	2	10
Cc1cc(C(=O)CN2CC(C)OC(C)C2)c(C)n1-c1ccccc1 (centres undefined)	5574	3.3	4	-42	9	-1	6
CC(C)(C)n1c(=O)[nH]c2c(c1=O)CCC2	2885	-10	-3	3	-4	5	6
CCCCOc1cccc(-c2cc(C(=O)NNC(=S)NCC)c3ccccc3n2)c1	19871*	4.2	17	-26	-5	3	6
O=C(NCc1cccnc1)c1cccc(S(=O)(=O)N2CCOCC2)c1	?	3.8	3	11	0	14	-7
CCCCOc1ccc(C2C3CN(C(=O)OCC)CC=C3C(C#N)=C(N)C2(C#N)C#N)cc1OC (centres undefined)	23656*	6.5	-14	-44	-2	1	5

Looked up by compound from above (two):
SMILES	Autofluor counter	RN4220 kill	BJeLR viability	PrP UTR inh	ugtP null kill	Mtb hypoxia rep	Mtb hypoxia rep growth
O=C(OCC(=O)N1CCc2ccccc21)c1ccncc1	5873	-1.6	.	-3	-2	-3	-2
COc1cc(C(=O)OCC(=O)Nc2cc(C)on2)c([N+](=O)[O-])cc1OC	3917	-1.0	11	-17	2	0	4

Carrying on.
SMILES	Autofluor counter	RN4220 kill	BJeLR viability	PrP UTR inh	ugtP null kill	Mtb hypoxia rep	Mtb hypoxia rep growth
CC(C)(C#CC(=O)O)OOC(c1ccccc1)(c1ccccc1)c1ccccc1	3717	25	8	-21	18	5	3
COC(=O)C1=C(c2cc3ccccc3s2)C[C@@H]2CC[C@H]1N2C(=O)N1CCC(O)CC1	3540	.	-1	17	.	.	.
CN(C)c1ccc(C=NNC(=O)CNC(=O)/C=C/c2ccco2)cc1	.	2.7	.	.	16	7	-2
COc1cc2c(cc1OC)CN(CC(=O)NC(=O)NCc1ccco1)CC2	3444	3.7	5	-12	3	.	.
COc1ccc(-c2cc(C(F)(F)F)nc(N3CCN(C)CC3)n2)cc1	4106	4.3	-18	-18	17	16	13
CCn1c(C(C#N)=C(O)CCc2ccccc2)nc2ccccc21	.	0.4	.	.	0	9	3
COc1c(C)cc(S(=O)(=O)N2CCOCC2)c(C)c1C	3950	7.1	6	-23	3	2	11
CCc1ccc(C(=O)C(C)OC(=O)Cc2n[nH]c(=O)c3ccccc23)cc1 (centres undefined)	6852	2.2	41	-12	3	4	-8
COc1cc(NC(=O)CN(C)S(=O)(=O)c2cccs2)cc(OC)c1	4159	1.0	1	-10	7	4	1
CCN1CCN(C(=O)Cc2c(C)n(C(=O)c3ccc(Cl)cc3)c3ccc(OC)cc23)CC1	4523	0.5	5	-13	0	8	1
Cc1c(NC(=O)COc2cccc3c2OC(C)(C)C3)c(=O)n(-c2ccccc2)n1C	2429	-0.1	-5	-15	24	12	3
O=C(CCc1ccncc1)N1CCCC(Nc2ccc(F)c(F)c2)C1 (centres undefined)	4723	-0.7	1	-18	6	4	-3
c1ccc(OCc2nc(-c3ccccc3)no2)cc1	4203	8.1	4	-65	10	.	.
CC(C)OC(=O)CC(=O)CSc1nc2c(cc1C#N)CCCCC2	4066	-2.0	-2	-56	-9	-5	12
Cc1cc(Cl)ccc1C(=O)C1CCCN(C(=O)c2cnsn2)C1 (centres undefined)	2268	0.4	4	-23	-5	9	0
COc1cccc(C(=O)NCCS(=O)(=O)N2CCCC2)c1	.	-3.5	17	-35	2	-2	-3
Cc1ccccc1-n1ccnc1SCC(=O)NCc1ccco1	4756	8.6	7	-19	5	-8	2
COc1ccccc1CN(C)CC(=O)NC(=O)NC1CCCCC1	.	-0.6	.	-15	2	13	6
O=C(c1n[nH]c2ccccc12)N1CCCCC1	4245	2.5	-1	-13	1	-2	6
CCN1C(=O)C(=c2oc(=C3C=Cc4ccccc4N3CC)c(=O)n2CC)SC1=S	.	14	.	.	-14	10	-1
Cc1cccc(C(=O)NC(=O)Nc2c(C)cc(C)nc2C)c1	4763	3.9	11	-50	3	-2	0
Cc1cc(Cl)c(S(=O)(=O)N2CCCCCC2)cc1OCC(=O)NC1CCCCC1	?	-0.5	7	-19	-11	-6	11
O=C(c1c(F)cccc1F)N(C1CCCCC1)C1CCCCC1	3620	6.5	-8	-28	19	7	1
O=c1[nH][nH]c(-c2ccccc2)c1C=Nc1ccc(OC(F)(F)F)cc1	2109	2.3	7	-8	7	18	7
Cc1ccccc1Nc1sc(C(=O)Nc2cccc(Cl)c2)c(N)c1C(N)=O	2284	-0.2	-1	-6	-10	6	6
CCOc1ccc(CCNC(=O)COC(=O)c2sccc2C)cc1OCC	6300	3.9	-5	-8	4	5	10
COc1ccc(NC(=O)CCN2CCN(S(=O)(=O)c3ccc(Cl)cc3)CC2)cc1	7814	5.7	0	-7	0	12	11
O=C(CNC(=O)c1cccc(Cl)c1)NN=Cc1cccnc1	.	5.0	.	.	-1	6	3
O=Cc1c(NCc2ccc(Cl)cc2)c2ccccc2[nH]c1=O	3136	0.7	-4	-27	1	10	4
COc1ccc(C2=NOC(C(=O)Nc3c(C)n(C)n(-c4ccccc4)c3=O)C2)cc1 (centres undefined)	4923	1.0	-6	-15	6	6	1
C=CCn1cc(C(=O)NCc2cccnc2)c(=O)c2cc(S(=O)(=O)N(CC)CC)ccc21	5789	6.2	10	-16	5	.	.
COc1ccc(C(CNC(=O)COc2cccc(C)c2)N2CCCC2)cc1 (centres undefined)	4677	1.2	.	-1	0	6	0
O=C(COC(=O)c1ccc(Br)o1)NCc1ccc(F)cc1	6085	1.7	.	-1	4	2	0
COc1ccc(-c2c(-c3cc(OC)cc(OC)c3)n(C)c3ccc(-c4ccc(OC)c(F)c4)cc23)cc1	2907	0.6	.	2	15	0	7
COCCNC(=O)Cn1cnc2c(cnn2-c2ccc(C)cc2)c1=O	3954	.	0	-24	.	.	.

Structural class: the compounds so far containing a Cl atom
SMILES	Autofluor counter	RN4220 kill	BJeLR viability	PrP UTR inh	ugtP null kill	Mtb hypoxia rep	Mtb hypoxia rep growth
O=C1CN(C(=O)C2CCC(=O)N(CCc3ccc(Cl)cc3)C2)CCN1 (centres undefined)	5966	0.9	-2	-48	6	-2	7
O=C(c1cccc(F)c1)N1CCN(C(=O)c2cc(-c3ccc(Cl)cc3Cl)on2)CC1	9830	4.8	-7	13	2	6	6
Cc1cc(Cl)c2oc(C(=O)N(C)Cc3ccon3)c(C)c2c1	5777	6.7	5	-95	7	7	2
O=C1c2ccccc2C(=O)N1CCc1nc(-c2ccc(Cl)cc2)no1	21023*	4.0	-5	-14	-3	3	10
COC(=O)c1cc(C(=O)OC)cc(S(=O)(=O)Nc2ccc(Cl)c(N)c2)c1	2902	17	4	-2	-10	15	10
CCN1CCN(C(=O)Cc2c(C)n(C(=O)c3ccc(Cl)cc3)c3ccc(OC)cc23)CC1	4523	0.5	5	-13	0	8	1
Cc1cc(Cl)ccc1C(=O)C1CCCN(C(=O)c2cnsn2)C1 (centres undefined)	2268	0.4	4	-23	-5	9	0
Cc1cc(Cl)c(S(=O)(=O)N2CCCCCC2)cc1OCC(=O)NC1CCCCC1	?	-0.5	7	-19	-11	-6	11
Cc1ccccc1Nc1sc(C(=O)Nc2cccc(Cl)c2)c(N)c1C(N)=O	2284	-0.2	-1	-6	-10	6	6
COc1ccc(NC(=O)CCN2CCN(S(=O)(=O)c3ccc(Cl)cc3)CC2)cc1	7814	5.7	0	-7	0	12	11
O=C(CNC(=O)c1cccc(Cl)c1)NN=Cc1cccnc1	.	5.0	.	.	-1	6	3
O=Cc1c(NCc2ccc(Cl)cc2)c2ccccc2[nH]c1=O	3136	0.7	-4	-27	1	10	4

High-throughput results: PubChem BioAssay, several laboratories
